Compound activity deposited in PubChem BioAssay by ICCB-Longwood Screening Facility, Harvard Medical School.
Choline anaer gr – choline-fed anaerobic bacterial growth inhibition; Gram-negative bacterium anaerobic choline minimal medium, absorbance growth; active compounds read low; many inactives read as strong as hits in the columns shown; hit rate 0.2% among 55,000; calls only;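 active = growth z-score on choline under -2 at 7 or 20 h with little or no fall on glycerol, limits in tiers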;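 note: stock transfer was 300 nL into about 50 µL; the organism is E. coli; final concentration not given here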
Choline anaer gr early – also measured in Choline anaer gr; calls as there; z-score; measured here: choline growth z-score, timepoint 1;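 score of optical density at 7 h as mean of two plates; lower means less growth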
* = called active by the depositor; i = inactive; & = joins results of further samples. These rows are one share of the data, so the mix of outcomes need not match the whole.

Molecule	Choline anaer gr	Choline anaer gr early
Cc1nc2nc3c(c(N4CCN(c5ccc(F)cc5)CC4)n2n1)CCC3	i	-1.91
Cc1[nH]c(C)c(S(=O)(=O)N2CCCC2)c1-c1nc(C2CC2)no1	i	1.16
O=C(CN1C(=O)CSc2ccc(C(=O)N3CCCC3)cc21)NCCC1=CCCCC1	i	-0.07
O=C(CSc1ccccc1)Nc1cccc2nsnc12	i	0.51
O=C(CCn1cnc2c([nH]c3ccccc32)c1=O)N1CCN(c2ccccn2)CC1	i	-0.58
CC(C)C(=O)Nc1ccc2c(c1)NC(=O)C(C)O2 (stereo unspecified)	i	0.22
Cn1c(N2CCCC(C(=O)N3CCN(c4ccccn4)CC3)C2)cc(=O)n(C)c1=O (stereo unspecified)	i	0.61
Cc1ccc(S(=O)(=O)NCc2ccc3c(c2)CCN3C(=O)c2ccc(F)cc2)cc1	i	-0.62
CN1C(=O)C(c2c(-c3ccccc3)[nH]c3c2c(=O)n(C)c(=O)n3C)c2ccccc21 (stereo unspecified)	i	-1.31
CCc1nnc(-c2cc(S(=O)(=O)N3CCOCC3)c[nH]2)o1	i	-1.38
O=C1CC(c2ccc(O)c(O)c2)c2c(nc(SCc3ccccc3)[nH]c2=O)N1 (stereo unspecified)	i	0.84
CNC(=O)C(c1ccccc1)N1CCc2cc(OC)c(OC)cc2C1CCc1ccc(C(F)(F)F)cc1 (stereo unspecified)	i	0.71
CCCNC(=O)C1CCCN(C(=O)CCc2c(C)[nH]c(C(=O)OCC)c2C)C1 (stereo unspecified)	i	0
COc1ccc(-c2noc(-c3sccc3S(=O)(=O)N(C)c3ccccc3)n2)cc1OC	i	0.59
COc1ccc(S(=O)(=O)N2CCc3cc4ccc(C)cc4nc32)cc1C	i	-0.43
COc1ccc(NC(=O)c2ccc(-c3nc(-c4ccccc4)no3)cc2)cc1	i	-1.39
O=S1(=O)C[C@H](NCCc2c[nH]c3ccccc23)[C@@H](S(=O)(=O)c2ccc(F)cc2)C1	i	1.17
CCOc1ccc(S(=O)(=O)c2cn(CC(=O)Nc3ccccc3C)c3ccc(F)cc3c2=O)cc1	i	-0.64
CCOC(=O)c1[nH]c(C)c(CCC(=O)N2CCCC(C(=O)N3CCCCC3)C2)c1C (stereo unspecified)	i	-0.4
O=c1c(-c2ccccc2)c(N2CCOCC2)c1=O	i	0.18
Cc1ccc(CNS(=O)(=O)c2cc(-c3nc(C)c(C)s3)sc2C)cc1	i	1.78
O=C(c1cnn2c(-c3ccccc3)cc(-c3ccccc3)nc12)N1CCCC1	i	0.61
O=C(NC1CC1)C1CCN(c2cc(-c3cccc(F)c3)ncn2)CC1	i	-0.9
O=S(=O)(Nc1ccc(Cn2cncn2)cc1)c1ccc2c(c1)CCCC2	i	-0.08

Sorted by length of the SMILES (rising): four of the compounds above.
Molecule	Choline anaer gr	Choline anaer gr early
O=C(NC1CC1)C1CCN(c2cc(-c3cccc(F)c3)ncn2)CC1	i	-0.9
COc1ccc(NC(=O)c2ccc(-c3nc(-c4ccccc4)no3)cc2)cc1	i	-1.39
CCCNC(=O)C1CCCN(C(=O)CCc2c(C)[nH]c(C(=O)OCC)c2C)C1 (stereo unspecified)	i	0
CCOc1ccc(S(=O)(=O)c2cn(CC(=O)Nc3ccccc3C)c3ccc(F)cc3c2=O)cc1	i	-0.64

(more compounds)
Molecule	Choline anaer gr	Choline anaer gr early
O=c1oc2cc(S(=O)(=O)NC3CCCC3)ccc2n1Cc1noc(C2CCC2)n1	i	0.32
Cc1ccc(-c2n[nH]c(=O)c3c2CCCC3)cc1S(=O)(=O)Nc1ccc(S(N)(=O)=O)cc1	i	1.42
CC1CCN(C(=O)C2CCN(c3nc4ccccc4n4cccc34)CC2)CC1	i	0.75
CCn1cc(CCN2CCN(S(=O)(=O)c3ccc4c(c3)CCC4)CC2)c2cccnc21	i	-2.09
CCOC(=O)c1c(-c2ccccc2)csc1NC(=O)CSc1cc(-c2ccccc2)nc(C)n1	i	1.03
CCCCNC(=O)Cn1c(=O)n(CCCCC(=O)NC2CCCCC2)c(=O)c2ccccc21	i	-0.05
N[C@@H](C(=O)N[C@@H]1C(=O)N2C(C(=O)O)=C(Cl)CS[C@H]12)c1ccccc1	i	0.12
Cc1c(CCNS(=O)(=O)c2ccc(Br)cc2)c2ccccc2n1Cc1ccccc1	i	1.11
Cc1cccc(-c2nc3ccc(C(=O)N4CCN(c5ncccn5)CC4)cc3nc2-c2cccc(C)c2)c1	i	0.87
CC(C)n1cnc(S(=O)(=O)N2CCCC(C(=O)N3CCN(C4CCCCC4)CC3)C2)c1 (stereo unspecified)	i	0.01
CCOC(=O)c1[nH]c(C)c(CN(C(=O)C(C)C)C2CCCCC2)c1C	i	0.41
O=C(Nc1cccc(Cl)c1)c1ccccn1	i	-0.65
CCc1nc(-c2ccc(N3CCN(C(=O)CNS(=O)(=O)c4ccccc4)CC3)cc2)no1	i	-0.7
COc1ccc(OC)c(NC(=O)Nc2ccc3c(c2)N(C(=O)c2ccc(C)cc2)CC3)c1	i	1.35
O=c1c(S(=O)(=O)c2ccc(F)c(Cl)c2)c[nH]c2c(F)cc(Cl)cc12	i	-1.06
COc1ccccc1NC(=O)c1nc(-c2ccc(C)cc2)n2c1CCCCC2	i	0.33
O=S(=O)(c1ccc(F)c(Cl)c1)N1CCCN(c2nc3cccnc3s2)CC1	i	-0.01
Cc1ccc(-c2cc3ncc4c(n3n2)-c2cc(C)ccc2OC4)cc1	i	0.09
O=C(Nc1ccc(Cl)cc1)c1cnn(-c2ccc(Br)cc2)c1	i	-0.09
Cc1noc(-c2ccc(NC(=O)c3ccccc3C)cc2)n1	i	-0.13
CCn1c(N2CCN(C(=O)Cc3ccccc3C)CC2)nc2ccccc21	i	-0.02
O=C(NOC[C@H](O)CO)c1ccc(F)c(F)c1Nc1ccc(I)cc1F	i	-0.83
O=C(NCC1CCCO1)c1nc(-c2ccc(S(=O)(=O)N3CCCCC3)cc2)no1 (stereo unspecified)	i	0.46
N#Cc1nc(-c2ccc(S(=O)(=O)N3CCOCC3)cc2)oc1N1CCCCC1	i	0.84
CC(C)n1c(SCc2nc(-c3cccc(Cl)c3)no2)nc2cc3c(cc2c1=O)OCO3	i	0.69
O=C1CCS(=O)(=O)N1c1ccc(S(=O)(=O)NC2CCCCC2)cc1	i	-0.66
C=Cc1ccc(Cn2nc3n(CCC)c(=O)c4ccc(C(=O)NC(C)CC)cc4n3c2=O)cc1 (stereo unspecified)	i	-0.3
COc1ccc(NC(=O)Nc2ccccc2CCc2nc3ccccc3[nH]2)cc1OC	i	-0.19
CCN1c2cc(C)ccc2-n2cccc2C12CCN(S(=O)(=O)c1cc(OC)ccc1OC)CC2	i	0.23
O=C(Nc1ccc(F)cc1)c1cc(-c2ccncc2)n[nH]1	i	0.28
O=C(Nc1ccc(C(=O)N2CCC(C(=O)NCC3CCCO3)CC2)cc1)c1ccc(Cl)cc1 (stereo unspecified)	i	-1.2
COc1ccc(C2CCCN2C(=O)Nc2cc(Cl)c(OC)cc2OC)cc1 (stereo unspecified)	i	-0.67
O=S(=O)(c1ccc(-c2noc(-c3cc4cc(Cl)ccc4[nH]3)n2)cc1)N1CCCC1	i	0.39
O=C(NC1CCCC1)c1cnn(-c2ccc(Br)cc2)c1	i	-0.89
O=C(CSC1=Nc2ccccc2N=C(c2ccccn2)C1)NCc1ccc(Cl)cc1	i	0.27
Cc1cc(C)n(-c2cc(NCc3cccc(Cl)c3)ncn2)n1	i	1.37
Cc1c(C(=O)NCc2ccccc2Cl)oc2ccc(S(=O)(=O)N3CCC(C)CC3)cc12	i	1.03
Brc1ccc(-c2ccc(SCc3nc(-c4ccc5c(c4)OCO5)no3)nn2)cc1	i	-0.95
Cn1c(CCc2cccc(NC(=O)c3cnccn3)c2)nc2ccccc21	i	-0.38
c1ccc(-c2ccc(C(c3ccccc3)n3ccnc3)cc2)cc1 (stereo unspecified)	i	0.27&0.46&0.5&-0.85
CN(C)c1nc2ncnc(SCC(=O)Nc3cc(F)ccc3F)c2s1	i	2.21
O=c1[nH]cnc2nc(N3CCOCC3)sc12	i	-1.04
O=C1CCC(=O)N1CCn1c2ccccc2c2nc3ccccc3nc21	i	1.57
Cc1cc(NCCc2ccccc2)n2ncc(-c3ccc(F)cc3)c2n1	i	3.01
COc1ccc(NC(=O)c2nnc(COCC(=O)NCc3cccnc3)s2)cc1	i	-0.73
O=C(NCc1ccc(F)cc1)c1cc(-c2ccccn2)nc2ccc(S(=O)(=O)N3CCOCC3)cc12	i	-0.33
CCOC(=O)c1[nH]c(C)c(CN(Cc2ccc(OC)cc2)C(=O)c2cc3ccc(OC)cc3[nH]2)c1C	i	-1.22
CCc1nc2sc(C(C)C)nn2c1S(=O)(=O)NC1CCCC1	i	0.03

Single records, from the list above:
COc1ccc(NC(=O)c2nnc(COCC(=O)NCc3cccnc3)s2)cc1 is listed as Choline anaer gr: i; Choline anaer gr early: -0.73
Brc1ccc(-c2ccc(SCc3nc(-c4ccc5c(c4)OCO5)no3)nn2)cc1 is listed as Choline anaer gr: i; Choline anaer gr early: -0.95
O=c1[nH]cnc2nc(N3CCOCC3)sc12 is listed as Choline anaer gr: i; Choline anaer gr early: -1.04

Next results:
Molecule	Choline anaer gr	Choline anaer gr early
CCN1CCN(c2cc(C(=O)O)c3cc(NS(=O)(=O)c4ccc(C)cc4C)ccc3n2)CC1	i	-0.04
Cc1ccc(CNC(=O)CCn2cnc3c(c(C)c(C)n3-c3ccccc3)c2=O)cc1	i	-0.04
Cc1nn(-c2nc3ccccc3o2)c(C)c1Sc1nnc(N)s1	i	0.52
Cc1nn(-c2nc3ccccc3n2C)c2c1C(c1cc(Br)ccc1F)CC(=O)N2 (stereo unspecified)	i	0.68
O=C(Nc1ccccc1Cl)c1ccc(CN2C(=O)CCn3nccc32)cc1	i	1.59
COc1ccc(-c2n[nH]c(CCNC(=O)c3ccc(Cl)cc3)n2)cc1	i	-0.77
O=C(Nc1ccc(Br)cc1F)c1nc(N2CCOCC2)c2oc3ccccc3c2n1	i	-0.39
COc1cc(OC)cc(C(=O)N2CCN(S(=O)(=O)c3ccc4c(c3)NC(=O)CO4)CC2)c1	i	0.53
COC(=O)c1ccccc1NC(=O)C1Cc2ccccc2N1C(C)=O (stereo unspecified)	i	-0.25
Cc1ccc(-c2cc(Nc3ccc4c(c3)OCO4)nc(C)n2)cc1	i	-0.67
CNC(=O)Cc1ccc(-n2c(=O)c3ccccc3n(CC(=O)Nc3ccccc3)c2=O)cc1	i	-0.08
C=Cc1ccc(Cn2nc3n(CCC(C)C)c(=O)c4ccc(C(=O)NC(C)C)cc4n3c2=O)cc1	i	1.14
Cc1ccc(Nc2ncnc3c2nc2n3CCCC2)c(Br)c1	i	-2.86
COc1ccc(NC(=O)Nc2cc3c(cc2N2CCCC2)n(C)c(=O)n3C)c(OC)c1	i	-0.8
O=C(NCc1ccc(F)cc1)c1ccc(-c2cccnc2)cc1	i	0.65
CCCc1cc(C2CCCN2C(=O)Nc2ccc(Br)cc2)no1 (stereo unspecified)	i	0.14
CCCCN(CCCC)S(=O)(=O)c1ccc2c(c1)N(C(C)=O)CCCS2	i	-0.05
COc1ccc(CNS(=O)(=O)c2cc(-c3cc(C)no3)sc2C)cc1	i	-0.64
CCCc1cc(C2CCCN2C(=O)NCCC(=O)OCC)no1 (stereo unspecified)	i	-0.98
Cc1ccc2oc(-c3noc(CNC(=O)Cc4ccccc4)n3)c(C)c2c1	i	0.67
CNC(=O)c1cc2c(oc1=O)CC(C)(C)CC2=O	i	-0.03
COc1ccc(NC(=O)C(Cc2ccccc2)NS(=O)(=O)c2cccc3cccnc23)cc1OC (stereo unspecified)	i	0.09
CCn1c(C2CCN(S(=O)(=O)c3ccc(C(C)C)cc3)C2)nc2cccnc21 (stereo unspecified)	i	0.65
NC(=O)c1cc(NC(=O)c2ccc3c(c2)OCCCO3)ccc1N1CCCC1	i	-0.69
CCC(=O)n1nc(C)c(S(=O)(=O)N2CCc3ccccc3C2)c1C	i	0.24
Cc1ccc(Cl)cc1NC(=O)N1CCC(C)(C(=O)NCc2ccc3c(c2)OCO3)CC1	i	-1.72
CC(=O)N1N=C(c2ccc(Br)cc2)OC1c1cc2ccccc2nc1Cl (stereo unspecified)	i	-0.07
CN1CCN(C(=O)c2ccc(F)cc2)c2cccnc21	i	0.24
CC(C)(C(=O)O)c1ccc(C(O)CCCN2CCC(C(O)(c3ccccc3)c3ccccc3)CC2)cc1 (stereo unspecified)	i	0.55&0.52&0.79&0.18
CCc1c(CN2CCN(Cc3ccc4c(c3)OCO4)CC2)csc1C	i	-1.96
COCCN1C(=O)c2cc3c(OC)ccc(OC)c3n2CC1(C)C(=O)NC1CCC(C)CC1 (stereo unspecified)	i	0.99
COc1ccc(CNC(=O)C2CCN(C(=O)c3cc4oc5ccccc5c4n3C)CC2)cc1OC	i	2.27
CNC(=O)N1CCCC1c1cc(C)on1 (stereo unspecified)	i	0.6
Cc1sc(-c2ccno2)cc1S(=O)(=O)N1CCCCCC1	i	-0.33
Cc1ccccc1-c1csc(SCc2noc(CCC(=O)Nc3nccs3)n2)n1	i	-0.93
CC(C)C(CCC(=O)Nc1nccs1)C(=O)O (stereo unspecified)	i	0.07
CCn1nnc2cc(-c3noc(CN4C(=O)COc5ccccc54)n3)ccc21	i	0.3
